Assay outcomes from PubChem.
LANA-H2B inh – blocks KSHV LANA binding to histone H2A/H2B; Q9QR71; cell-free LANA-H2A/H2B peptide, fluorescence polarization; inhibition, % (test concentration not listed); actives 0.6% (n = 320,000); in the data active = inhibition mostly above about 10%, no sharp cut-off; inactive = mostly below about 6.7%;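 also: stock transfer was 7.5 nL into about 10 µL; 0% = median of vehicle wells and 100% = median of positive control wells; one replicate is shown; the record names a cut of 25% in any replicate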
A1 inh – inhibitors of the anti-apoptotic protein A1, read as caspase activation. MEF A1-2A-BIM cells, Caspase-Glo 3/7 luminescence, 3 h; percent of clofoctol response, vehicle zero. caspase activation, % (no concentration beside the values). actives 0.066% (n = 330,000). AID 2462;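 active = over half of replicate activation scores above 10%, or exactly half above 10 with the replicate mean above 10; inconclusive = replicate mean below 10 yet half the replicates above 10; inactive = over half of replicates below 10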;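 also: wells of about 30 µL received 50 nL stock; many hits fall short of the cut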
Beta2AR agonist – agonists of human beta-2 adrenergic receptor inducing internalization. P07550. response, % (concentration not given with the values). actives 0.43% (n = 340,000). Am2.2-beta2AR cells, FAP receptor internalization, flow cytometry; reference of the scale not given here;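 active = response above a set limit, near 3 SD of response in nonfluorescent compounds, cut at about 42% in these data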;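 also: stock transfer was 100 nL into about 11 µL; a reference agonist was the positive control; negative values mostly stem from fluorescent compounds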
Target sequence (P07550 whole entry, looked up): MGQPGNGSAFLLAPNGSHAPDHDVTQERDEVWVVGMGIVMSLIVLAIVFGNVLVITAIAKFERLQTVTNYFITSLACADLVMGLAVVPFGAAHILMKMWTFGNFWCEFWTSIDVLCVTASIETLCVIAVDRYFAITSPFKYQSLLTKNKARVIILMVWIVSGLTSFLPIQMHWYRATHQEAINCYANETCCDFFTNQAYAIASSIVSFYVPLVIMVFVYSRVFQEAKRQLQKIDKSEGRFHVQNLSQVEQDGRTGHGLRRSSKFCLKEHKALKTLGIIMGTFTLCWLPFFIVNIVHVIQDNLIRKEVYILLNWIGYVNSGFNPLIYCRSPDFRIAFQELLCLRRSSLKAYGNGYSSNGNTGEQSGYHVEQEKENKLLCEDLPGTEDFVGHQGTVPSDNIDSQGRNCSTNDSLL
Beta apoptosis – beta cell apoptosis inhibition | INS-1E cytokine-induced death, ATP luminescence, 48 h; percent of positive-control rescue, neutral wells zero | protection from apoptosis, % (test concentration not listed) | actives 0.8% (n = 300,000) | AID 435005;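 active = all replicates at 75% or more, or half of them and the mean; inconclusive = half reach 75% but not the mean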;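 also: 0% = cytokine-treated negative control wells and 100% = positive control rescue; higher means more ATP so stronger rescue from cytokine killing; wells of about 40 µL received 100 nL stock; the first replicate is given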
UCH37 DUB inh – inhibitors of human deubiquitinating enzyme UCH37; purified proteasome/UCH37, Ub-AMC cleavage fluorescence; actives 0.33% (n = 330,000); inhibition, % (no concentration beside the values); Q9Y5K5; AID 588478;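 active = mean of two replicates above 20%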;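 also: 0% = compound-free wells with enzyme and 100% = wells lacking proteasome; stock transfer was 100 nL into about 20 µL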
Target sequence (Q9Y5K5 whole entry, looked up): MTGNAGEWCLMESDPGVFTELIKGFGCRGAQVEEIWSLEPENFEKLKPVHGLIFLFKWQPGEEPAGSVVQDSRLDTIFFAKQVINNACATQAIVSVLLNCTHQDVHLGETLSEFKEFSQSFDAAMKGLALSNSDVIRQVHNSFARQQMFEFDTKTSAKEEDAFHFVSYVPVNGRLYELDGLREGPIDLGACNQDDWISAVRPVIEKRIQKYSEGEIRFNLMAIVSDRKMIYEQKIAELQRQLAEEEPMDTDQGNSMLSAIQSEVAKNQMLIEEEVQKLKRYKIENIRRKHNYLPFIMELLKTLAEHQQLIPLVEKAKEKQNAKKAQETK
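Signal – fluorescence, ex 355 nm, em 460 nm · System – Proteasome-bound UCH37 · Input – 0.15 nM proteasome as dispensed · Timing – 30 min preincubation with enzyme, 25 min cleavage at room temperature · Read-out basis – percent inhibition of cleavage signal versus uninhibited and no-proteasome wells · Medium – Tris-HCl pH 7.4 with ATP-MgCl2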
RanGTP-Imp inh – inhibitors of RanGTP-importin-beta interaction, primary screen, biochemical, FRET, CFP-Ran, YFP-importin-beta, homogeneous. actives 1.1% (n = 300,000). cell-free CFP-Ran/YFP-importin-beta FRET ratio. inhibition, % (test concentration not listed);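 active = most replicates above 15%; inconclusive = exactly half above 15%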;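 also: 0% = DMSO wells and 100% = Ran loaded with GDP instead of GTP; wells of about 40 µL received 100 nL stock; the first replicate is given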
Calb FLC – C. albicans growth modulation with fluconazole | growth inhibition, % (no concentration beside the values) | C. albicans CaCi-2 (fluconazole-resistant clinical isolate) + fluconazole, Alamar Blue growth, 48 h | AID 1979 | actives 0.57% (n = 300,000);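 active = most replicates above 75%; inconclusive = exactly half above 75%; inactive = most below 75%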;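 also: all wells also contain fluconazole at 8 µg/ml as a sub-toxic cotreatment; 0% = median of DMSO wells and 100% = median of geldanamycin control wells; wells of about 8 µL received 7.5 nL stock; the first replicate is given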
T cruzi inh – blocks replication of Trypanosoma cruzi; T. cruzi beta-gal in NIH3T3, luminescence, 90 h; inhibition, % (test concentration not listed); actives 1.4% (n = 300,000); AID 1885;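 active = mean inhibition across valid replicates above about 55%, limit read from the data; inconclusive = mean below that limit but half or more replicates reach it; inactive = mean below it, under half of replicates reach it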;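 also: signal also drops with host cell toxicity which is not excluded here; 0% = plate median of DMSO wells and 100% = zero luminescence signal; higher percent means less beta-gal luminescence so fewer parasites; stock transfer was 50 nL into about 50 µL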
Starred values were filed as active, the others as inactive; i = inactive; ? = inconclusive; nt = no result given. Hits appear at their usual frequency, and some 4.3% of all compounds hit somewhere here.

molecule | LANA-H2B inh | A1 inh | Beta2AR agonist | Beta apoptosis | UCH37 DUB inh | RanGTP-Imp inh | Calb FLC | T cruzi inh
COc1ccc(C)cc1N(CC(=O)Nc1cccnc1)S(=O)(=O)c1ccccc1 | -3.5 | 0.2 | -5 | 1 | 1.5 | 3.8 | 4 | -3
CCCCC(=O)Nc1ccc2c(c1)C(=O)NC2=O | 1.8 | 0.1 | -8 | -3 | -435 | 1.8 | -5 | -17
Cc1ccccc1NC(=O)/C(=C\c1cccs1)NC(=O)c1ccco1 | 0.4 | -0.1 | 1 | 4 | 5.4 | 7.0 | 0 | 11
COc1cccc(-c2c(-c3cc(OC)cc(OC)c3)n(C)c3ccc(-c4cccc5[nH]ccc45)cc23)c1 | 8.4 | -0.5 | 0 | 6 | -8.6 | nt | nt | nt
CCC(c1nnnn1Cc1cccs1)N1CCN(C2CCCC2)CC1 (stereo not given) | -4.1 | -0.2 | 11 | 2 | 6.3 | -2.8 | -2 | 2
Cc1sc(NC(=O)c2ccc(=O)n(C)n2)nc1-c1ccccc1 | 3.1 | 0.6 | -11 | 21 | 5.6 | 2.6 | 2 | 22
COc1ccc(CN2C(=O)CCC2(C)C(=O)NC2CCCCCC2)cc1 (stereo not given) | 1.9 | 1.1 | 10 | -5 | 2.1 | ? | -4 | -25
COc1ccc(NC(=O)c2cccc(N3C(=O)c4ccc(C(=O)Nc5ccc(OC)c(O)c5)cc4C3=O)c2)cc1O | -2.4 | -0.4 | 12 | -1 | 9.0 | -1.3 | 6 | -21
CCCCNC(=S)NC(=O)c1ccc([N+](=O)[O-])cc1 | 1.9 | -0.3 | -2 | 3 | 3.6 | 3.1 | 1 | -6
CCCc1nnc(NC(=O)CCC(=O)NCCc2ccc(Cl)cc2)s1 | 2.1 | 0.1 | 1 | -1 | 1.1 | 1.9 | nt | -10
COc1ccc(/C=C2\SC(=S)N(CC(=O)NCCO)C2=O)cc1 | 2.1 | -2.4 | 3 | -7 | 6.4 | 6.3 | -16 | -5
Cn1c(=O)c2c(ncn2CCC(=O)N/N=C/c2cccnc2)n(C)c1=O | 2.6 | 0.4 | 1 | 1 | nt | -2.8 | -2 | -5
CCCCCCCC[n+]1cccc2c3ccccc3ccc21 | -1.3 | 0.5 | -5 | 108* | i | 1.2 | 102* | 68*
COc1ccc(NC(=O)c2cc(S(=O)(=O)N3CCCCC3)ccc2N2CCCCC2)cn1 | -1.1 | 0.6 | -7 | 5 | 2.9 | 0.3 | -11 | 33
Cc1[nH]c2ccccc2c1C(=O)C(=O)NCc1ccncc1 | -0.3 | -0.2 | -3 | -1 | nt | -3.3 | -3 | 5
O=C(CC1Sc2ccccc2NC1=O)OCC(=O)N1CCc2ccccc21 (stereo not given) | -0.7 | -0.1 | 0 | -7 | -0.2 | 2.3 | 13 | 4
CCOC(=O)[C@@H]1[C@H]2COc3ccccc3[C@@H]2N2C(=O)N(c3ccccc3)C(=O)[C@]12C | 4.2 | 1.0 | -1 | -4 | 3.6 | 2.6 | 2 | -8
Nc1c(N2CCCCC2)c2ccccc2oc1=O | -0.4 | 0.9 | -7 | -5 | 3.7 | 3.2 | 5 | 14
COC(=O)c1c(C)nc(C)c(C(=O)OC)c1-c1ccc(OC)c(OC)c1 | -1.0 | -0.6 | 1 | 4 | 0.2 | 3.2 | -15 | -4
COC(=O)c1cc2ccccc2c(-c2c(OC)c(C(=O)OC)cc3ccccc23)c1OC | -1.9 | 0.1 | 23 | -4 | -55 | -1.6 | 19 | 47

Arranged by count of non-hydrogen atoms (falling): three of the compounds above.
molecule | LANA-H2B inh | A1 inh | Beta2AR agonist | Beta apoptosis | UCH37 DUB inh | RanGTP-Imp inh | Calb FLC | T cruzi inh
COC(=O)c1cc2ccccc2c(-c2c(OC)c(C(=O)OC)cc3ccccc23)c1OC | -1.9 | 0.1 | 23 | -4 | -55 | -1.6 | 19 | 47
Cn1c(=O)c2c(ncn2CCC(=O)N/N=C/c2cccnc2)n(C)c1=O | 2.6 | 0.4 | 1 | 1 | nt | -2.8 | -2 | -5
Nc1c(N2CCCCC2)c2ccccc2oc1=O | -0.4 | 0.9 | -7 | -5 | 3.7 | 3.2 | 5 | 14

Filtered by structure, the entries above containing an NH in an aromatic ring.
molecule | LANA-H2B inh | A1 inh | Beta2AR agonist | Beta apoptosis | UCH37 DUB inh | RanGTP-Imp inh | Calb FLC | T cruzi inh
COc1cccc(-c2c(-c3cc(OC)cc(OC)c3)n(C)c3ccc(-c4cccc5[nH]ccc45)cc23)c1 | 8.4 | -0.5 | 0 | 6 | -8.6 | nt | nt | nt
Cc1[nH]c2ccccc2c1C(=O)C(=O)NCc1ccncc1 | -0.3 | -0.2 | -3 | -1 | nt | -3.3 | -3 | 5

Further entries follow:
molecule | LANA-H2B inh | A1 inh | Beta2AR agonist | Beta apoptosis | UCH37 DUB inh | RanGTP-Imp inh | Calb FLC | T cruzi inh
COCCCNc1nc(-c2ccc(Cl)cc2)nc2ccccc12 | -8.1 | -0.3 | -13 | 2 | 3.8 | 2.0 | 25 | 18
CCCC(=O)Nc1nnc(SCC(=O)NCc2cccs2)s1 | -1.4 | 0.7 | 6 | 2 | 2.5 | 5.0 | 5 | -13
CC1CC(C)CN(C(=S)NC2CCCCC2)C1 (stereo not given) | 0.7 | -0.6 | 2 | -5 | 2.5 | -1.3 | -1 | -15
Cc1ccc(CNC(=O)CCc2c(C)nn(-c3ccc(N4CCOCC4)nn3)c2C)cc1 | -6.2 | 0.3 | -9 | 1 | 3.4 | 3.4 | 4 | -7
Cc1c(N(C(=O)CNC(=O)c2ccccc2)C2(C(=O)NC3CCCCC3)CCCCC2)c(=O)n(-c2ccccc2)n1C | -0.1 | 1.7 | -1 | 4 | -1.8 | -3.1 | -2 | 5
CCOc1ccc(C(C)(O)CN2CCOCC2)cc1 (stereo not given) | -8.1 | -0.6 | 6 | 1 | -0.8 | 0.9 | -7 | -7
CCOC(=O)C1CCCN(Cc2nc(N)nc(Nc3ccccc3)n2)C1 (stereo not given) | 0.7 | 0.5 | 8 | -12 | 1.6 | 2.9 | nt | -8
COC(=O)c1ccccc1NC(=O)Cn1cc2c(n1)CCC(C)C2 (stereo not given) | 3.9 | -0.8 | -11 | 3 | 0.9 | 0.1 | 3 | 8
CCOC(=O)c1c(C)oc2c(CC(=O)c3ccccc3)c(Cl)c(O)c(O)c12 | -2.0 | 0.4 | 1 | -1 | -0.9 | 1.2 | -17 | -18
COc1cccc(C2CC(c3ccc(Cl)cc3Cl)Nc3nc(N)nn32)c1 (stereo not given) | 10.0* | 0.0 | -4 | nt | -1.0 | 3.7 | 22 | 24
CC(Nc1nc(-c2ccccc2F)nc2ccccc12)c1ccccc1 (stereo not given) | -0.9 | 1.9 | -1 | 23 | 4.0 | -3.3 | 14 | 38
COc1ccc(-c2csc(Nc3cccc(C)n3)n2)cc1C | 4.9 | -2.3 | 1 | -1 | 4.0 | 1.2 | 3 | 37
CCOc1ccc(CCNC(=O)CCC(=O)N2CCSc3ccccc32)cc1OCC | nt | nt | 8 | nt | 0.1 | -2.1 | 5 | 27
CNC(=S)NCCC(c1ccccc1)c1ccccc1 | 0.7 | -0.3 | 9 | -5 | -1.7 | -1.2 | -8 | 1
CN1CCCC(OC(=O)c2ccccc2F)C1 (stereo not given) | 5.0 | 1.0 | 4 | -6 | 4.3 | -1.4 | -9 | -11
Cc1ccc(F)cc1NC(=O)c1ccc2c(c1)OCO2 | -4.7 | -0.4 | 6 | -4 | 0.5 | nt | -16 | -4
Cc1n[nH]c(=S)n1/N=C/c1ccc(OCc2ccc(Cl)cc2Cl)cc1 | -6.7 | -0.4 | 6 | 19 | nt | 9.0 | -10 | -2
COC(=O)C1=C(C)N(C)C(C)=C(C(=O)OC)C1c1cccc(Br)c1 | 1.7 | -0.5 | -1 | 15 | 0.6 | -1.5 | -4 | 9
CNC(=S)Nc1ccc(C)cc1 | -3.2 | 0.3 | -1 | -3 | -0.7 | -0.9 | -1 | -5
COc1ccc(NS(=O)(=O)c2cc([N+](=O)[O-])ccc2N/N=C\c2c(C)[nH]c3ccccc23)cc1 | 0.2 | 0.3 | -578 | 16 | nt | -82 | 2 | 6
O=C(O)C1CCC(N2C(=O)C3CCCCC3C2=O)CC1 (stereo not given) | -0.7 | 0.4 | 3 | 0 | 2.8 | -4.5 | 0 | -21
Cc1cc(NC(=O)Nc2ccccc2F)ccc1Br | -3.3 | -9.1 | 2 | 4 | 38* | -0.2 | -22 | 24
CCCCNC(=O)N1CCN(S(C)(=O)=O)CC1 | -1.8 | -0.8 | 1 | nt | -1.6 | -3.2 | 3 | -2
COc1ccc(-c2cc(C(=O)O)c3ccccc3n2)c(OC)c1 | 3.1 | -0.5 | 11 | 2 | 0.3 | 2.1 | 21 | -7
O=C(c1cc([N+](=O)[O-])ccc1N1CCOCC1)N1CCN(S(=O)(=O)c2cc(Cl)ccc2Cl)CC1 | -0.9 | 0.4 | 27 | 5 | 2.1 | 0.2 | 2 | 13
Cc1cccc2c1CC(C)(C)N=C2C1=C(O)CCCC1=O | -5.1 | 2.0 | 2 | -7 | 5.1 | -2.0 | -6 | -4
COc1ccc2ccccc2c1C1CC(=O)N2CN(C)CSC2=C1C#N (stereo not given) | 0.6 | -0.3 | 4 | 0 | 5.8 | ? | 17 | 13
CCc1cc(C(=O)OC)c(NC(=O)CC2SC(N)=NC2=O)s1 (stereo not given) | -4.7 | -0.1 | 4 | -3 | 3.2 | -0.9 | 12 | -7
COc1ccc(CCN2CC(C(=O)NC3CCOCC3)CCC2=O)cc1 (stereo not given) | -1.0 | 0.2 | 4 | -3 | 6.1 | 4.7 | 2 | -13
CS(=O)(=O)c1ccc(C(=O)N2CCc3ccccc3C2)cc1 | -6.8 | 0.2 | 1 | -4 | 2.0 | 0.3 | -10 | -4
COc1ccc(NC(=O)Cc2ccsc2)c(OC)c1 | 2.1 | 0.5 | -2 | -4 | 6.3 | 1.3 | 0 | -1
O=C(COC(=O)CN1C(=O)c2ccccc2C1=O)Nc1ccc(S(=O)(=O)N2CCCC2)cc1 | 0.0 | 0.8 | -12 | -4 | 1.7 | 3.3 | 6 | -9
O=C(NCCc1c[nH]c2ccccc12)C(=O)Nc1cc2c3c(c1)CC(=O)N3CCC2 | 0.6 | 0.1 | 6 | -5 | 0.8 | -2.7 | 0 | 3
Nc1nc2n(n1)C(c1cccc(Cl)c1)CC(c1ccc(F)cc1)N2 (stereo not given) | 3.5 | 0.5 | 0 | 0 | 0.0 | -1.6 | 6 | 10
C=CCn1c(SC2CCOC2=O)nc2sc(C)c(C)c2c1=O (stereo not given) | 4.0 | 0.0 | 9 | 2 | 0.4 | -0.8 | 1 | 0
COc1ccc(C2(C)NC(=O)N(CC(=O)NCC(=O)Nc3ccc(F)c(F)c3F)C2=O)cc1OC (stereo not given) | -4.7 | 0.5 | -1 | 0 | 1.0 | nt | nt | nt
O=C1CCCC/C1=C/Nc1ccc(C(=O)O)cc1 | 3.2 | -0.5 | 12 | -7 | 16 | -2.8 | -14 | -5
